# Bioassay records deposited in PubChem BioAssay by Johns Hopkins Ion Channel Center.
# CHT inh: inhibitors of human choline transporter CHT. actives 0.86% (n = 310,000). CHT-expressing cells, membrane potential dye, choline response; stronger effect = lower value. Q9GZV3. B-score at 10 µM. AID 488975;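 active = B-score over 3 SD under the library average, and starting fluorescence ratio not unusually high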;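 also: choline stimulus applied at its EC90 after an EC20 pre-addition; B-score computed on integrated fluorescence ratio after choline addition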
# Target sequence (Q9GZV3 whole entry, looked up): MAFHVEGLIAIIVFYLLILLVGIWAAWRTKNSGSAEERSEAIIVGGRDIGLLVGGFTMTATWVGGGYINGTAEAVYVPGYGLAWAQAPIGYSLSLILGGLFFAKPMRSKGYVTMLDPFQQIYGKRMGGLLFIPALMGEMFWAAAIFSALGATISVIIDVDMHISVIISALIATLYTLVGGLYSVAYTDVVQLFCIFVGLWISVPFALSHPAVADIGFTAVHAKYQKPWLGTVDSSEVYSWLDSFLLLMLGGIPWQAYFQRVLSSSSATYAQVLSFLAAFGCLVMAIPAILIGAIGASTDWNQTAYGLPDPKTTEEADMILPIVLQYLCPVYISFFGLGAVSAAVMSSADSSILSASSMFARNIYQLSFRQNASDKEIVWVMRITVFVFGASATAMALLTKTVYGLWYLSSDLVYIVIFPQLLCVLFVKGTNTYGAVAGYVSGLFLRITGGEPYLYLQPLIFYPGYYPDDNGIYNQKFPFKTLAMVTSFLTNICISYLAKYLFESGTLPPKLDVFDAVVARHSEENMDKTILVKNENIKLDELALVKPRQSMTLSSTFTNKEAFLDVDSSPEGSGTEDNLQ
# Calls only; i = inactive. An excerpt; most or all hits stand in other tables.
molecule | CHT inh
Cc1ccc2cc(CCNC(=O)c3ccc4c(c3)OCO4)c(=O)[nH]c2c1C | i
NC(=O)CC[C@@H]1NC(=O)[C@@H]2CCCN2C(=O)c2cc([N+](=O)[O-])cc(F)c2NCCC[C@@H](C(N)=O)NC1=O | i
CCN(CC)CCN(C)Cc1ccc(Br)cc1 | i
Cc1occc1-c1nnc(SCC(=O)Nc2nc(C(C)(C)C)cs2)o1 | i
CC1CN(C2CCCCC2)c2nc3c(c(=O)[nH]c(=O)n3C)n2C1 (stereo not given) | i
O=C(c1ccccc1)c1nn(-c2ccc(Cl)cc2)cc1C(=O)c1cc2ccccc2oc1=O | i
COc1ccc(CNC(=O)C(c2ccncc2)N(C(=O)Cc2cccs2)c2cccc(C)c2)cc1 (stereo not given) | i
CCn1c(COc2ccc(Cl)cc2)nnc1SCC(=O)Nc1ccc2c(c1)OCCO2 | i
O=C1CC(N2CCSCC2)C(=O)N1c1ccc(F)cc1 (stereo not given) | i
O=S(=O)(c1cccc(-c2nc3n(n2)Cc2ccccc2-3)c1)N1CCCCC1 | i
COc1ccccc1NC(=O)CN1CCCCC1 | i
COc1cc(C(=O)Nc2nnc(CC(C)(C)C)s2)c([N+](=O)[O-])cc1OC | i
CN(CC#CC(O)(c1ccccc1)c1ccccc1)C(C)(C)C | i
CCC(CC)C(=O)Nc1ccc(Sc2ccc([N+](=O)[O-])cc2)cc1 | i
O=C(CCc1ccccc1)Nc1cc2c(cc1Cl)OCCO2 | i
N/C(=N\OC(=O)CC1CCCCC1)c1ccccn1 | i
C=CCN1C(=O)C2C(C(=O)NC)C3(C)C=CC2(O3)C1C(=O)NCc1ccc(OC)cc1 (stereo not given) | i
COc1ccccc1Oc1cc(-n2nc(C)cc2C)ncn1 | i
Cn1cccc1C(=O)OCC(=O)N1CC(=O)Nc2ccccc21 | i
CCCC(=O)Nc1nnc(S(=O)(=O)N(C)Cc2ccco2)s1 | i
COc1cc(/C=N/Nc2ccc([N+](=O)[O-])cc2S(=O)(=O)N2CCOCC2)cc(OC)c1OC | i
Cc1cccc(NC(=O)COc2ccc3oc4c(c3c2)CCCC4)n1 | i
CC(CCc1ccccc1)NC(=O)c1ccc(NC(=O)c2ccc(Cl)cc2Cl)cc1 (stereo not given) | i
CC(=O)NC1=NC(=O)/C(=C/c2cn(C(C)=O)nc2-c2ccccc2)S1 | i
CCCC(=O)Nc1ccccc1NC(=O)c1ccc(OCC)cc1 | i
COc1cccc(C2CC(C(F)(F)F)n3ncc(C(=O)NCc4ccco4)c3N2)c1 (stereo not given) | i
CCOc1ccc(Cn2nnc(C(=O)NCCc3ccc(Cl)cc3)c2N)cc1 | i
Cn1c(=O)c2c(nc(NN=C3CCCC3)n2C)n(C)c1=O | i
Cc1cc(S(=O)(=O)N2CCOCC2)ccc1OCC(=O)NCCN1CCOCC1 | i
CC1(C)Cc2c(c(-c3ccco3)[nH]c(=O)c2C#N)CS1 | i
CCc1ccccc1NC(=O)Cc1cn(C)c2ccccc12 | i
C(=N\c1nccs1)/Nc1nccs1 | i
Cc1ccc2oc(=O)c3cnn(CC(=O)NCCC(C)C)c3c2c1 | i
Cn1c(=O)c2c(nc(Oc3ccc4c(c3)OCO4)n2Cc2ccc(Cl)cc2)n(C)c1=O | i
COc1ccc(OCCNC(=O)c2ccc(C)cc2)cc1 | i
CC(C)(C)c1ccc(C(=O)NC(=S)NCC2CCCO2)cc1 (stereo not given) | i
O=C(CN1CCOCC1)Nc1ccc([N+](=O)[O-])cc1Br | i
O=C(O)c1cccc(N/N=C/c2cn(-c3ccccc3)nc2-c2cccs2)c1 | i
Cc1c(-c2nnnn2-c2ccc(F)cc2)cnc2cc3c(cc12)OCO3 | i
O=[N+]([O-])c1ccc(N2CCN(S(=O)(=O)c3ccccc3)CC2)cc1NCC1CCCO1 (stereo not given) | i
CC(Sc1nnc2c(n1)C1CCC2(C)C1(C)C)C(=O)Nc1ccccc1 (stereo not given) | i
O=C(Nc1cc(Cl)ccc1-n1cncn1)c1cc(S(=O)(=O)N2CCOCC2)ccc1F | i
COc1ccc(CNc2nc3c(c(=O)[nH]c(=O)n3C)n2Cc2ccccc2C)cc1 | i
CCOC(=O)c1sc(Nc2ccc(F)cc2)nc1C | i
O=C(c1ccco1)N1CCN(Cc2ccccc2Br)CC1 | i
Cc1ccc(N(NC(=O)C(C)(C)O)C(=O)c2ccccc2)cc1C | i
Cc1ccccc1NC(=O)C1CCN(C2=NS(=O)(=O)c3ccccc32)CC1 | i
Cc1cc(Sc2nc(NC(C)C)nc(NC(C)C)n2)nc(Cl)n1 | i
Cc1cccc(CN2CCc3c(OCC(=O)N4CCCc5ccccc54)cccc3C2=O)c1 | i
NC(=O)c1ncc(C(F)(F)F)cc1Oc1cccnc1 | i
Cn1c2ccccc2c2cc(/C=N/NC(=O)c3ccc(O)cc3O)ccc21 | i
CC(=O)Nc1nc(-c2ccc(Cl)cc2)ns1 | i
COc1ccccc1/C=C/C=N/n1c(-c2ccc(C)cc2)n[nH]c1=S | i
COc1c2ccoc2c(OC)c2oc(=O)ccc12 | i
O=C(c1cccs1)N1CCC(c2nc(-c3ccc(S(=O)(=O)N4CCOCC4)cc3)no2)CC1 | i
Cc1ccc(NC(=O)CCN2C(=O)C3CCCCC3C2=O)cc1[N+](=O)[O-] (stereo not given) | i
OC1CCN(Cc2cn(Cc3ccccc3)nc2-c2cc3ccccc3o2)CC1 | i
Cc1ccc(S(=O)(=O)NC(=O)NC(=O)N(C)S(=O)(=O)c2ccc(C)cc2)cc1 | i
Fc1ccc(C2=Nn3c(nnc3-c3ccco3)SC2)cc1 | i
O=C(Nc1ccccc1Oc1ccccc1)C1=COCCO1 | i

# 4 entries from above, with values ahead of the structure:
CHT inh	Molecule
i	Cc1ccc2oc(=O)c3cnn(CC(=O)NCCC(C)C)c3c2c1
i	CC(Sc1nnc2c(n1)C1CCC2(C)C1(C)C)C(=O)Nc1ccccc1 (stereo not given)
i	Cn1c(=O)c2c(nc(NN=C3CCCC3)n2C)n(C)c1=O
i	Cc1c(-c2nnnn2-c2ccc(F)cc2)cnc2cc3c(cc12)OCO3

# Other entries follow.
molecule	CHT inh
O=Nc1c(O)c2ccccc2c2ccccc12	i
COc1ccc(S(=O)(=O)CCc2nnc(NC(=O)c3ccc(F)cc3)s2)cc1	i
CCOC(=O)/C(C#N)=C/c1cccn1-c1ccc(Cl)cc1	i
CCN(Cc1ccccc1)C(=O)C(C)OC(=O)c1cc(S(=O)(=O)Nc2c(C)n(C)n(-c3ccccc3)c2=O)ccc1C (stereo not given)	i
Cc1noc(C)c1S(=O)(=O)N1CCN(C(c2ccccc2)c2ccc(Cl)cc2)CC1 (stereo not given)	i
CCCN(CCC)CCCOC(=O)c1ccc(Cl)cc1Cl	i
COc1cccc(C2NC(=O)NC(C)=C2C(=O)Nc2ccc(C)cc2)c1OC (stereo not given)	i
COC(=O)/C=C/c1cnc[nH]1	i
COc1cc(C(=S)N2CCCC2)ccc1OC(=O)c1ccc(Cl)cc1[N+](=O)[O-]	i
Cc1ccc(C(=O)Cc2nnc(C)s2)cc1	i
Cc1cccc(C)c1NC(=O)N1CC(C)OC(C)C1 (stereo not given)	i
CCOc1ccc(NC(=O)CN(C)C(=O)CC2CC3CCC2C3)cc1OCC (stereo not given)	i
CC(=O)c1c(C)n(-c2ccccc2)c2ccc(OCC(O)CN3CCOCC3)cc12 (stereo not given)	i
Cc1ccc(CNC(=O)C2CCCN(c3nc4ccsc4c(=O)s3)C2)cc1 (stereo not given)	i
O=C(Nc1ccccc1NS(=O)(=O)c1ccc(F)cc1)C1CCC1	i
CCCCN1C(=O)CC(Nc2ccc(CC)cc2)C1=O (stereo not given)	i
CCOC(=O)C1CCN(S(=O)(=O)c2cccc(C(=O)Nc3ccccc3)c2)CC1	i
COc1ccccc1C(=O)NC1CCN(C(=O)Nc2ccc(F)cc2)CC1	i
COC(=O)c1cccc([N+](=O)[O-])c1CS(=O)(=O)c1ccc(C)cc1	i
COc1ccc(CNCc2cccc(C)c2)cc1	i
CC(C)C[C@H](NC(=O)c1[nH]cnc1C(=O)N[C@@H](C)C(=O)OC(C)(C)C)C(=O)OC(C)(C)C	i
CN(C[C@@H](Cc1cccc2ccccc12)N(C[C@H](Cc1ccccc1)N(CCc1ccccc1)N=O)N=O)N=O	i
Cc1cc(NC(=O)CSc2nnc(-c3ccncc3)n2-c2ccccc2)no1	i
CCOc1ccccc1NC=C1C(=O)OC2(CCCCC2)OC1=O	i
CCCCn1c(N)c(N2CCOCC2)c(=O)n(CC(=O)NCCc2ccccc2)c1=O	i
N#CC(C#N)=Cc1cn(-c2ncc(C(F)(F)F)cc2Cl)c2ccccc12	i
Cc1cc(=S)cc(C)n1CCCn1ccnc1	i
CC(NC(=O)CCn1nc(-c2ccc(Cl)cc2)ccc1=O)c1ccccc1 (stereo not given)	i
COc1ccc(CN(CC(=O)NCc2ccc3c(c2)OCO3)C(=O)c2csnn2)cc1	i
O=C(NC(Cc1ccccc1)c1ccc2c(c1)OCCCO2)c1ccccc1 (stereo not given)	i
CCCOC(=O)c1ccc(S(N)(=O)=O)o1	i
Cc1ccc(S(=O)(=O)NNC(=O)c2sc(=S)n(C)c2C)cc1	i
CC[C@]1(c2cccc(C)c2)C(=O)N(C(=O)OC)N1C(=O)OC	i
O=c1[nH]c(/C=C\c2cccc(F)c2)nc(O)c1[N+](=O)[O-]	i
Cc1cc(NC(=O)CSc2nnc(NCc3ccccc3)s2)no1	i
Cc1cc(C)n(-c2nc(-c3ccccc3)cs2)n1	i

# Structures shown so far with a tert-butyl group (5):
molecule	CHT inh
Cc1occc1-c1nnc(SCC(=O)Nc2nc(C(C)(C)C)cs2)o1	i
COc1cc(C(=O)Nc2nnc(CC(C)(C)C)s2)c([N+](=O)[O-])cc1OC	i
CN(CC#CC(O)(c1ccccc1)c1ccccc1)C(C)(C)C	i
CC(C)(C)c1ccc(C(=O)NC(=S)NCC2CCCO2)cc1 (stereo not given)	i
CC(C)C[C@H](NC(=O)c1[nH]cnc1C(=O)N[C@@H](C)C(=O)OC(C)(C)C)C(=O)OC(C)(C)C	i

# Carrying on.
molecule	CHT inh
CCOC(=O)c1c(C)[nH]c(=S)c(C#N)c1-c1ccc(Cl)cc1	i
CCN1CCCC1CNS(=O)(=O)c1cccc(C(F)(F)F)c1 (stereo not given)	i
Cc1cc(O)c(CN(C)C)c2c1C(=O)/C(=C/c1ccco1)O2	i
Cc1ccc(S(=O)(=O)N2CCOCC2)cc1NC(=O)COC(=O)c1ccccc1OCc1c(C)noc1C	i
COc1ccc(-c2nnnn2-c2ccc(F)cc2F)cc1	i
CCN(CC)c1ccc(C(=O)N2CCN(Cc3ccccc3)CC2)cc1	i
COc1cc(C2N(c3ccccn3)C(=O)C3CCCN32)cc(OC)c1OC (stereo not given)	i
COCC(=O)O[C@]1(CCN(C)CCCc2nc3ccccc3[nH]2)CCc2cc(F)ccc2[C@@H]1C(C)C	i
Cc1nc(C(C)N(C)Cc2c(C(=O)N3CCCCC3)nc3c(C)cccn23)c(C)s1 (stereo not given)	i
CN(C)N1C(N)=C(C#N)C(c2ccsc2)C2=C1CC(C)(C)CC2=O (stereo not given)	i
Cc1cc(C)cc(N2CC(c3nc4ccccc4n3C)CC2=O)c1 (stereo not given)	i
Cc1ccc(/C=C(\NC(=O)c2ccccc2)C(=O)NCCc2ccccn2)o1	i

# Fetched by structure from above (5):
molecule	CHT inh
OC1CCN(Cc2cn(Cc3ccccc3)nc2-c2cc3ccccc3o2)CC1	i
Cc1cccc(C)c1NC(=O)N1CC(C)OC(C)C1 (stereo not given)	i
O=[N+]([O-])c1ccc(N2CCN(S(=O)(=O)c3ccccc3)CC2)cc1NCC1CCCO1 (stereo not given)	i
O=C(c1ccco1)N1CCN(Cc2ccccc2Br)CC1	i
Cc1ccccc1NC(=O)C1CCN(C2=NS(=O)(=O)c3ccccc32)CC1	i

# Next part:
molecule	CHT inh
CCOc1cc(N2CCOCC2)c(OCC)cc1NC(C)C(=O)N1CCC(C)CC1 (stereo not given)	i
Cc1c(OCC(=O)N2CCC(C(=O)O)CC2)ccc2c1oc(=O)c1ccccc12	i
CS(=O)(=O)c1ccc(C(=O)N2CCc3ccccc3C2)cc1	i
Cc1ccc(F)cc1NC(=O)c1ccc2c(c1)OCO2	i
CNC(=S)NCCC(c1ccccc1)c1ccccc1	i
COc1ccc(CN2C(=O)CCC2(C)C(=O)NC2CCCCCC2)cc1 (stereo not given)	i
Cc1ccccc1NC(=O)/C(=C\c1cccs1)NC(=O)c1ccco1	i
COc1ccc(N(C)C(=O)c2oc(=O)c3ccccc3c2-c2ccc(C)cc2)c(OC)c1	i
N=c1sccn1CC(=O)NCCc1ccc(Cl)cc1	i
COc1ccccc1N1CCN(CC(=O)NCC2CCCO2)CC1 (stereo not given)	i
COc1ccccc1N(C)S(=O)(=O)c1ccc(C(=O)OCC(=O)N2CCC2)cc1	i
COc1ccc(/C=C/C(=O)ONC2=NCCCCC2)cc1OC	i
CC1(C)Cc2nc3oc4c(N5CCOCC5)ncnc4c3cc2CO1	i
CC(C)(C)NC(=O)NC(=O)COC(=O)COc1ccc(Cl)cc1Cl	i
O=C(Nc1cnc2sccn2c1=O)c1ccccc1Cl	i
COc1ccc(-c2cnc(SCCNC(=O)c3ccc4c(c3)OCO4)[nH]2)cc1	i
COc1cc(OC)cc(-c2nc3cc(C)ccc3o2)c1	i
Nc1ccc2c(c1)CCC2=O	i
O=C(NC(C(=O)N1CCCC1C(=O)O)=C1CCCCC1)c1ccccc1 (stereo not given)	i
COc1ccccc1/C=C/C(=O)OCC(=O)NNC(=O)c1ccccc1	i
COc1ccc(N(CC(=O)NCCc2ccc(Cl)cc2)S(=O)(=O)c2c(C)[nH]c(=O)[nH]c2=O)cc1	i
C/C=C/c1ccc(OCCSc2nc(C)cc(=O)[nH]2)c(OC)c1	i
COc1ccc(CN2CCN(Cc3ccccc3F)CC2)c(OC)c1	i
Cc1oc2nc(SCCCC(=O)NCCCO)nc(N)c2c1C	i
Cc1cccc(/C=N/NC(=O)c2cccc([N+](=O)[O-])c2)n1	i
Cc1nc(C)c(C(=O)O)c(-c2cccs2)c1C(=O)O	i
CCN(CC)CCCN(C)C(=O)Cn1nc(Cc2ccncc2)c2ccccc2c1=O	i
Cc1cc(C(=O)NNc2ccc(C)c(C)c2)no1	i
CC(C)=CC(=O)OCC(=O)Nc1ccc(F)cc1Cl	i
